Bioassay records: PubChem BioAssay, National Center for Advancing Translational Sciences (NCATS)
VACV Venus inh – vaccinia inhibition (Venus reporter); Potency, µM (titrated, usually from 36.5 µM), for the others: at the highest dose activity change, negative = inhibition, actives largely listed as inhibitors; AID 720580; actives 0.46% (n = 330,000); Vaccinia virus Venus reporter expression, fluorescence; active means well fitted inhibition curve with a large enough effect; inconclusive means small, poorly fitted or top-dose-only effect; inactive means no such curve, though single readings can be large or run the other way; tested in A549 cells; also: nearly all actives have a fitted effect of over 30% in size; inactives centre near -10
Vaccinia mCherry – inhibitors of vaccinia virus infection (mCherry reporter signal). Vaccinia virus mCherry reporter infection, fluorescence; about a quarter of the inactives have no number. actives 0.63% (n = 310,000). AID 720579. Potency, µM (titrated, usually from 36.5 µM), for the others: at the top dose activity change, negative = inhibition, hits mostly inhibitors; active = well fitted inhibition curve with a large enough effect; inconclusive = small, poorly fitted or top-dose-only effect; inactive = no such curve, though single readings can be large or run the other way; tested in A549 cells; also: nearly all actives have a fitted effect of over 35% in size; inactives centre near -10
* hit, by the source's call; i = inactive; ? = inconclusive; nt = no result given; [ ] = remark or other dose. % is scaled to controls: 0 for no effect and ±100 for the full control effect; potency is read from the fitted curve at half-maximal effect. Compounds as they come. Share with any hit: about 0.87%.

structure	Vaccinia mCherry	VACV Venus inh
CCNC(=O)C1(C)CCN(C(=O)c2ccccc2OC(F)(F)F)C1 (centres undefined)	3%	5%
Cc1cccc(C)c1NC(=S)N(CCN(C)C)Cc1cccs1	-7%	3%
CCOc1ccc(S(=O)(=O)N2CCCC(C(=O)N3CCOCC3)C2)cc1 (centres undefined)	-1%	-14%
CC(C(=O)Nc1cc([N+](=O)[O-])ccc1Cl)N1CCN(c2ccccc2O)CC1 (centres undefined)	?	?
COc1ccc(C2=CC(c3ccccc3Cl)n3nc(-c4ccc(Cl)cc4)nc3N2)cc1 (centres undefined)	-21%	-21%
COc1ccc(N(CC(=O)N2CCc3ccccc3C2)S(=O)(=O)c2c(C)[nH]c(=O)[nH]c2=O)cc1	-5%	-5%
CSCCOC(=O)c1[nH]c2c(c1C)C(=O)CC(c1ccco1)C2 (centres undefined)	?	-29%
COc1ccc(-c2cc3ccc(OCC(=O)NCC4CCC(C(=O)O)CC4)cc3oc2=O)cc1 (centres undefined)	-2%	0%
O=C(N/N=C/c1cccc2cccnc12)[C@H]1C[C@@H]1c1ccccc1	-21%	-14%
COc1ccccc1CC(=O)NC1CCC(C)CC1 (centres undefined)	0%	-7%
CC(OC(=O)c1ccccc1NCCO)C(=O)Nc1ccc(S(=O)(=O)N2CCOCC2)cc1 (centres undefined)	-6%	-1%
Cc1noc(C)c1S(=O)(=O)N1CCCC(C(=O)NCc2ccccn2)C1 (centres undefined)	-10%	1%
O=C(c1ccccc1)c1ccc(Sc2ccc([N+](=O)[O-])cc2)cc1	-12%	-3%
O=C(CCc1ccccc1)NNC(=O)c1cc(Cl)ccc1O	-27%	-15%
COc1ccc(Cl)cc1NC(=O)C/C(C)=N/NC(=O)CCc1ccccc1	-26%	-23%
CC1(C)CC(=O)C=C(Nc2cccc(O)c2)C1	nt	-18%
C[C@@H]1CN([C@H](C)CO)C(=O)CCCn2nncc2CO[C@H]1CN(C)S(=O)(=O)c1cccc(F)c1	i	-3%
COc1ccc(C(=O)NNC(=O)C2=NN(c3ccccc3)C(=O)CC2)cc1	i[7.34 µM]	-5%[7.34 µM]
COc1cccc(NC(=O)c2c(C)nn(-c3cccc(C)c3)c2-n2cccc2)c1	-9%	7%
C[C@@H]1O[C@@H](O[C@H]2[C@H](Oc3cc(O)c4c(c3)O[C@H](c3ccc(O)cc3)CC4=O)O[C@H](CO)[C@@H](O)[C@@H]2O)[C@H](O)[C@H](O)[C@H]1O	-2%	-12%
CCc1nnc(NS(=O)(=O)c2ccc(NC(=S)NC(=O)/C=C/c3ccc(F)cc3)cc2)s1	-15%	-4%
Cc1nc2sccn2c(=O)c1S(=O)(=O)NC(C)c1ccccc1 (centres undefined)	-14%	-9%
O=C1C(Cc2ccccc2)SC(=Nc2ccccc2)N1c1ccccc1 (centres undefined)	nt	-7%
O=C(Nc1ccc2nc(SCC(=O)N3CCOCC3)sc2c1)c1ccc(Br)cc1	-12%	-13%

Single records (already shown). Order of values: Vaccinia mCherry | VACV Venus inh
Cc1nc2sccn2c(=O)c1S(=O)(=O)NC(C)c1ccccc1 (centres undefined) as listed: -14% | -9%
C[C@@H]1CN([C@H](C)CO)C(=O)CCCn2nncc2CO[C@H]1CN(C)S(=O)(=O)c1cccc(F)c1 as listed: i | -3%
COc1ccc(C(=O)NNC(=O)C2=NN(c3ccccc3)C(=O)CC2)cc1 as listed: i[7.34 µM] | -5%[7.34 µM]
COc1cccc(NC(=O)c2c(C)nn(-c3cccc(C)c3)c2-n2cccc2)c1 as listed: -9% | 7%
C[C@@H]1O[C@@H](O[C@H]2[C@H](Oc3cc(O)c4c(c3)O[C@H](c3ccc(O)cc3)CC4=O)O[C@H](CO)[C@@H](O)[C@@H]2O)[C@H](O)[C@H](O)[C@H]1O as listed: -2% | -12%

Later entries
structure	Vaccinia mCherry	VACV Venus inh
Cn1ccs/c1=N\C(=O)Nc1ccccc1	i	-8%
CCOc1ccc(CCNC(=O)CN2C(=O)c3cccnc3Oc3ccc(C)cc32)cc1OCC	i	-14%
COc1c(C(C)C)cc(NC(C)=O)cc1C(C)C	nt	-14%
Cc1nn(CC(C)C)c(Cl)c1C(=O)NCC(C)(C)N1CCOCC1	i	-17%
O=C1/C(=C\c2ccc(Cl)cc2Cl)N2CCC1CC2	-3%	-15%
Cc1onc(-c2c(Cl)cccc2Cl)c1C(=O)N1C(C)CCCC1C (centres undefined)	-1%	-16%
COc1cccc(Nc2c(F)c(OC)c(F)c(F)c2C(=O)O)c1	nt	-2%
NC(=O)CC[C@H](NC(=O)c1ccc(F)cc1)C(=O)OCC(=O)NCc1ccc2c(c1)OCO2	-9%	3%
Cc1ccc(-c2[nH]ncc2C(=O)c2ccc(Br)cc2)c(O)c1	-4%	-25%
CNc1nc(NC)c2cn[nH]c2n1	-14%	-7%
COc1cccc(NC(=O)CNC(=O)Cn2c(C)cc3ccccc3c2=O)c1	-2%	3%
Cc1cccc(CNC(=O)CCn2ccc3cc(S(=O)(=O)N4CCCC4)ccc32)c1	-7%	-15%
N#Cc1c(-c2ccccc2Cl)c2c([nH]c1=O)-c1ccccc1OC2	i[7.34 µM]	0%[7.34 µM]
CN(C)Cc1ccccc1Cc1ccccc1	i	-3%
CC(C)NC(=O)C1CCN(Cc2cnn(-c3ccccc3)c2-n2cccc2)CC1	nt	-8%
CN(C)CCNC(=O)c1cccc2ccc(-c3ccc(-c4ccccc4)cc3)nc12	?	13µM*
COc1ccc(NC(=O)COC(=O)/C=C/c2ccccc2[N+](=O)[O-])cc1OC	-13%	-7%
CN(c1cccc(NS(=O)(=O)c2cccs2)c1)S(C)(=O)=O	-11%	-17%
CCOC(=O)c1cnc(-n2[nH]c(C)c(Cc3ccccc3)c2=O)[nH]c1=O	-9%	0%
O=C(O)CCc1nnc(SCC(=O)Nc2ccc(Cl)c(C(F)(F)F)c2)[nH]c1=O	i	-11%
CCCCC1CCC(C(=O)N(CCOC)c2c(N)n(CCCC)c(=O)[nH]c2=O)CC1 (centres undefined)	-16%	-8%
COc1ccc(OC)c(/C=C/C(=O)NC2=NCCS2)c1	-7%	-23%
CCOC(=O)C(C)Oc1ccc(NC(=O)C(Cl)Cl)cc1 (centres undefined)	i[7.34 µM]	-7%[7.34 µM]
COc1cc(C2NC(=O)NC(C)=C2C(=O)OCc2ccc(C)cc2)cc(OC)c1O (centres undefined)	i	3%
CCCC(=O)Nc1ccc2c(c1)nc1n2CCN(C2CCCCC2)C1	4%	3%
N#Cc1c(Cl)nc(N/N=C/c2ccccc2)c(Cl)c1Cl	-14%	-6%
CC(C)OC(=O)CC1C(=O)NCCN1C(=O)COc1ccc(C(C)(C)C)cc1 (centres undefined)	?	-12%
Cc1[nH]c(=S)[nH]c(=O)c1Cc1ccccc1	-10%	-4%
COC(=O)c1nn(-c2ccc(OC)cc2)c(=O)cc1Sc1ccc(C)cc1	i	2%
CCS(=O)(=O)NCc1c(C)ncc2c1CCN(C(=O)c1ccc(F)cc1)C2	-27%	-22%
CC(C)(C)OC(=O)NCc1ccc(CNC(=O)c2nc[nH]c2C(=O)N2CCc3ccccc3C2)cc1	i	-15%
COc1ccc(OC)c(NC(=O)CSc2nnc(Cc3cccn3C)n2CCc2ccccc2)c1	-23%	-15%
CN(CC(=O)Nc1ccc(F)cc1)C(=O)COC(=O)c1cc(S(=O)(=O)N(C)C)ccc1N1CCCC1	-18%	-12%
COc1cc(C2c3c(-c4ccccc4O)n[nH]c3C(=O)N2Cc2ccncc2)cc(OC)c1OC (centres undefined)	-21%	-11%
CCOc1ncccc1C(=O)N1CCN(Cc2ccc3c(c2)OCO3)CC1	nt	-22%
COc1ccc(Cl)cc1N(C)C(=O)c1ccc2c(=O)n3c(nc2c1)CCCCC3	-20%	-18%
CCC(C)NC(=O)CCn1c(-c2ccc(F)cc2)cc(C(C)=O)c1C (centres undefined)	i	-9%
CC(C)NC(=O)N(C)C[C@H]1Oc2ccc(NC(=O)C3CCCCC3)cc2C(=O)N([C@H](C)CO)C[C@@H]1C	i	-8%
O=C(Nc1cccc(S(=O)(=O)N2CCOCC2)c1)c1ccc(N2CCOCC2)c([N+](=O)[O-])c1	-13%	-23%
COCCN(C(=O)COC(=O)/C=C/c1ccc(C)o1)c1c(N)n(Cc2ccccc2)c(=O)[nH]c1=O	-9%	-15%
COc1cccc(C#Cc2cnc3c(c2)C(=O)N([C@@H](C)CO)C[C@H](C)[C@H](CN(C)C(=O)C2CCC2)O3)c1	-8%	?
COc1cc(CO)c(Br)cc1OCC(=O)Nc1ccccc1C	-12%	-9%
CC(=O)N1N=C(c2cccc([N+](=O)[O-])c2)OC1(C)CC(=O)Nc1ccccc1 (centres undefined)	-19%	-11%
N#CCCN(C(=O)COC(=O)c1ccc(S(=O)(=O)Nc2ccccc2)cc1)c1ccccc1	-17%	-1%
CC1Cc2nc(SCC(=O)NCC3CCCO3)n(Cc3ccccc3)c(=O)c2S1 (centres undefined)	-7%	-5%
Cc1ccc(-c2c[n+](CC(=O)Nc3ccc(C)cc3C)c3n2CCC3)cc1	i[7.34 µM]	-7%[7.34 µM]
CCOc1cc(N)c(Cl)cc1C(=O)NCC1CN(Cc2ccc(F)cc2)CCO1 (centres undefined)	-24%	-13%
CCOC(=O)c1sc(N2C(=O)c3oc4ccc(C)cc4c(=O)c3C2c2ccccc2F)nc1C (centres undefined)	-6%	-2%
CCc1nc2ccc(C(=O)Nc3ccc(OC)c(OC)c3)cn2c1N(C)Cc1cccs1	-21%	-18%
COc1ccc(C(=O)Nc2cccc(-c3ccc(N4CCOCC4)nn3)c2)cc1OC	-17%	25%
CCC(C)NC(=O)CSc1ccc(S(=O)(=O)N(C)C2CCCCC2)cn1 (centres undefined)	-21%	-13%
CC(C)c1ccc(S(=O)(=O)c2nnn3c2nc(NC2CCCC2)c2sccc23)cc1	-1%	-14%
Cc1nc(SCC(=O)N2CCC(C(N)=O)CC2)n[nH]1	-2%	-5%
Cc1ccc(C2(C)NC(=O)N(CC(=O)Nc3cc(S(=O)(=O)N(C)C)ccc3C)C2=O)cc1 (centres undefined)	-29%	-19%
CCOC(=O)C1=C(CN2CCN(c3cc(C)ccc3C)CC2)NC(=O)NC1c1ccc(Cl)cc1 (centres undefined)	-5%[7.34 µM]	-8%[7.34 µM]
COc1ccccc1N(CC(=O)N1CCCCC1C)S(=O)(=O)c1ccc(Cl)cc1 (centres undefined)	i	-20%

(next part)
structure	Vaccinia mCherry	VACV Venus inh
CCN(Cc1ccccc1)C(=O)C1CCN(S(=O)(=O)c2ccc3c(c2)CCCN3C(C)=O)CC1	-9%	-13%
O=[N+]([O-])c1ccc(C2=Nc3cc(Cl)ccc3OC2)cc1	?	-16%
O=C(CSc1nc2ccccc2s1)Nc1ncccn1	i	-10%
O=c1cc(O)c2sc3nc(C(F)(F)F)c4c(c3c2[nH]1)CCCCC4	i	-2%
CCOc1ccccc1NC1c2ccccc2C(=O)N1c1ccc(C)cn1 (centres undefined)	?	-5%
Cc1ccc(Cl)cc1NC(=O)CN1C(=O)COc2ccc(S(=O)(=O)N3CCCCCC3)cc21	-11%	-9%
CCOc1ccc(Nc2nc(-c3cccnc3)cs2)cc1	0%	0%
Cc1ccc(NC(=O)C(=O)NC(C)C2COc3ccccc3O2)cc1 (centres undefined)	nt	-25%
CCOc1ccccc1N1CCN(CC(=O)N(CC(C)C)c2c(N)n(CC(C)C)c(=O)[nH]c2=O)CC1	-5%	-4%
CCN(CC)CCNC(=O)c1cn(CC)c2ccc(S(=O)(=O)N3CCOCC3)cc2c1=O	-2%	-2%
O=C(Nc1ccc(F)cc1)C1CCN(S(=O)(=O)c2cccc3nonc23)CC1	13%	-15%
O=C(C=Cc1cccc(Cl)c1)c1ccccc1	i	0%
COc1cc(C(=O)N2CCC(NC(=O)C(Cc3ccc(C)cc3)NC(C)=O)CC2)cc(OC)c1OC (centres undefined)	-16%	-11%
CN1OC[C@@H]2CN(Cc3ccc(Cl)cc3)[C@H](c3ccc(N4CCCCC4)cc3)C[C@@H]21	i	-4%
CN(Cc1ccccc1)C(=O)c1cccc(NC(=O)Cc2cccc(NC(=O)C3CCN(C(=O)C4CC4)CC3)c2)c1	-15%	-4%
Fc1ccc(-c2nc3ccc(Br)cn3c2Cc2cccc(Cl)c2)cc1	i	7%

Shown with values under each structure: entries from further up.
Every second line gives: Vaccinia mCherry, VACV Venus inh
CCCC(=O)Nc1ccc2c(c1)nc1n2CCN(C2CCCCC2)C1
 : 4%, 3%
N#Cc1c(Cl)nc(N/N=C/c2ccccc2)c(Cl)c1Cl
 : -14%, -6%

The list goes on.
structure	Vaccinia mCherry	VACV Venus inh
CNC(=O)COc1ccc(NC(=O)CCn2nc(-c3ccc(C)cc3)c3ccccc3c2=O)cc1	-21%	-11%
Cc1ccccc1-c1nc2ccccc2o1	-11%	-11%
CCOc1ccc(CSCCNC(=S)Nc2ccccc2)cc1	-20%	-21%
Cc1ccc(NC(=O)c2scc3c2CCCC3)cc1	-11%	1%
COc1cc(NC(=O)CCCSc2nc(-c3ccco3)cc(C(F)(F)F)n2)cc(OC)c1OC	-28%	?
CCCCN(CC)CCNC(=O)c1cc2c(=O)[nH]c3ccccc3c2n1C	-9%	-12%
NC1(C(=O)O)CCCCC1c1ccccc1 (centres undefined)	-17%	-14%
CCN(c1ccccc1)S(=O)(=O)c1ccc2c(c1)C(C)(C)C(=O)N2C	-1%	-19%
